# Assay outcomes: PubChem, Broad Institute
# Vaccinia inh – blocks a specific stage of Vaccinia orthopoxvirus infection, primary screen, cell-based, single point; Vaccinia-infected cells, mCherry/Venus stage reporter fluorescence; hits give low values; some inactives read as strong as hits; activity change (mCherry), % (test concentration not listed); 89,000 tested, 0.01% active;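 active = mCherry past -33% and 40 or more points under the early reporter, replicates agreeing; inconclusive = past -33% without that gap or agreement; tested in A549 cells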;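 note: scaled between vehicle wells and reference inhibitor wells; 23 nL library stock went into each well; one replicate is shown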
# Vaccinia inh Venus – second read-out of Vaccinia inh, no call of its own (marks repeat the call); activity change (Venus), %; measured here: Venus reporter, other viral stage;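 negative = less Venus signal; first of two replicates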
# * hit, by the source's call; u = inconclusive; x = not tested or not shown; & = joins results of further samples.
SMILES,Vaccinia inh,Vaccinia inh Venus
CCCNC(=O)Nc1ccc2c(c1)C(=O)N(C)C[C@@H](OC)[C@H](C)CN(S(C)(=O)=O)[C@H](C)CO2,15,14
C[C@@H]1CN([C@H](C)CO)C(=O)c2cc(NS(=O)(=O)c3ccccc3)ccc2O[C@@H]1CN(C)Cc1ccc(C(F)(F)F)cc1,-31,-22
Cc1noc(C)c1NC(=O)N(C)C[C@H]1Oc2ccc(NC(=O)Nc3ccc(C(F)(F)F)cc3)cc2C(=O)N([C@@H](C)CO)C[C@@H]1C,-3,2
O=C(C[C@H]1CC[C@@H](NC(=O)CN2CCOCC2)[C@H](CO)O1)NC1CCCCC1,-1,-3
CC(C)C#Cc1cnc2c(c1)C(=O)N([C@H](C)CO)C[C@@H](C)[C@H](CN(C)Cc1ccccc1)O2,-15,-6
COc1cccc(S(=O)(=O)N2CC[C@@H]3[C@H]2c2cc(C#Cc4cccnc4)ccc2N[C@@H]3CO)c1,4,8
COc1ccc(S(=O)(=O)N[C@@H]2C=C[C@H](CC(=O)NCCc3ccncc3)O[C@@H]2CO)cc1,0,-2
O=C(C1CCCCC1)N1CC2(C1)[C@@H](c1ccccc1)[C@@H](CO)N2Cc1ccccc1F,-28,-9
O=C(CN1CCOCC1)N1CC(=O)N2[C@H](CO)[C@H](c3ccc(/C=C/c4ccccc4)cc3)[C@@H]2C1,14,-7
C[C@@H]1CN([C@@H](C)CO)S(=O)(=O)c2ccc(-c3cncnc3)cc2O[C@H]1CN(C)C(=O)CC1CC1,20,7
C[C@@H]1CN([C@H](C)CO)C(=O)c2cc(NC(=O)C3CCCCC3)ccc2O[C@@H](C)CCCCO[C@@H]1CN(C)C(=O)Nc1ccccc1,13,-6
Cc1ccc(S(=O)(=O)N[C@@H]2CC[C@@H](CCNC(=O)C3CCOCC3)O[C@@H]2CO)cc1,17,4
COc1ccc(S(=O)(=O)Nc2ccc3c(c2)C(=O)N([C@H](C)CO)C[C@@H](C)[C@H](CN(C)Cc2ccccc2)O3)cc1,5,-1
COc1cccc(S(=O)(=O)N2C[C@@H]3N[C@H](C2)C3c2ccc(-c3cccc(C)c3)cc2)c1 (stereo partly drawn),u,4
C[C@H](CO)N1C[C@H](C)[C@H](CN(C)S(=O)(=O)c2ccc(Oc3ccccc3)nc2)OCc2cn(nn2)CCCC1=O,12,14
C[C@@H]1CN([C@H](C)CO)C(=O)c2cc(NC(=O)CCN3CCOCC3)ccc2O[C@@H]1CN(C)Cc1ccc(-c2ccccc2)cc1,-23,-24
Cc1ccc(S(=O)(=O)Nc2ccc3c(c2)C(=O)N([C@@H](C)CO)C[C@@H](C)[C@H](CN(C)Cc2ccncc2)OCCCC[C@@H](C)O3)cc1,2,-1
C[C@@H]1CN([C@H](C)CO)C(=O)c2cc(NC(=O)C3CC3)ccc2O[C@H]1CN(C)C(=O)Nc1ccc2c(c1)OCO2,25,21
C[C@H]1CCCCO[C@H](CN(C)S(=O)(=O)c2ccccc2)[C@@H](C)CN([C@@H](C)CO)C(=O)c2cc(NC(=O)Nc3ccc(C(F)(F)F)cc3)ccc2O1,-19,1
C[C@H](CO)N1C[C@H](C)[C@@H](CN(C)C)Oc2ccc(NC(=O)C3CC3)cc2C1=O,14,-5
C/C=C/c1ccc([C@@H]2[C@@H](CO)N3C(=O)CN(S(=O)(=O)c4cccc(F)c4)C[C@H]23)cc1,-1,-14
O=C(CN1CCOCC1)N1CC(=O)N2[C@H](C1)[C@H](c1ccc(C3=CCCCC3)cc1)[C@@H]2CO,-4,1
COc1cccc(NC(=O)N[C@H]2C=C[C@H](CC(=O)N3CCN(C)CC3)O[C@H]2CO)c1,3,4
C[C@H](CO)N1C[C@H](C)[C@@H](CN(C)C(=O)C2CCCCC2)OCCCC[C@H](C)Oc2ccc(NS(=O)(=O)c3ccccc3)cc2C1=O,-32,-25
COc1cccc(-c2ccc([C@H]3[C@@H](CO)N4C(=O)CN(C(=O)C5CC5)C[C@@H]34)cc2)c1,3,8
CNC[C@H]1Oc2ccc(NC(=O)Nc3ccc(OC)cc3)cc2C(=O)N([C@H](C)CO)C[C@H]1C,13,13
CO[C@@H]1CN(C)C(=O)c2cc(NC(=O)Nc3ccccc3Cl)ccc2OC[C@@H](C)N(C)C[C@H]1C,-19,-13
C[C@H]1CN([C@@H](C)CO)S(=O)(=O)c2ccc(-c3cncnc3)cc2O[C@H]1CN(C)C,19,15
COc1ccc(NC(=O)N(C)C[C@H]2Oc3c(NC(=O)c4ccncc4)cccc3C(=O)N([C@@H](C)CO)C[C@@H]2C)cc1,15,25
CN1C(=O)c2cc(NS(C)(=O)=O)ccc2OC[C@H]2O[C@@H](CC(=O)NC3CCCCC3)CC[C@H]21,15,8
CC(=O)N(C)C[C@H]1Oc2cc(-c3cccc(F)c3)ccc2S(=O)(=O)N([C@H](C)CO)C[C@H]1C,-12,2
C[C@@H]1CN([C@@H](C)CO)C(=O)c2ccccc2-c2ccccc2CO[C@H]1CN(C)S(=O)(=O)c1ccc(Cl)cc1,u,x
C[C@H](CO)N1C[C@H](C)[C@@H](CN(C)S(=O)(=O)c2cccs2)Oc2ccc(NC(=O)C3CCCCC3)cc2CC1=O,-7,-2
C[C@@H]1CN([C@@H](C)CO)C(=O)c2cccc(NS(=O)(=O)c3cn(C)cn3)c2O[C@@H]1CN(C)Cc1ccncc1,13,5
C[C@@H]1CN([C@@H](C)CO)S(=O)(=O)c2ccc(-c3ccccc3F)cc2O[C@@H]1CN(C)Cc1cccnc1,u,x
CN(C)C(=O)c1cccc(-c2ccc(C3[C@@H]4CN(Cc5cncnc5)C[C@H]3N4)cc2)c1 (stereo partly drawn),11&7,7&4
CC(C)NC(=O)Nc1ccc2c(c1)CC(=O)N([C@@H](C)CO)C[C@@H](C)[C@@H](CN(C)Cc1ccc(Cl)c(Cl)c1)O2,u,x
CO[C@H]1CN(C)C(=O)c2ccc(NS(C)(=O)=O)cc2OC[C@@H](C)N(CCC(F)(F)F)C[C@@H]1C,20,16
O=C(C1CC1)N1CC(=O)N2[C@H](CO)[C@@H](c3ccc(-c4ccccc4F)cc3)[C@@H]2C1,u,x
COc1cccc(NC(=O)N[C@H]2C=C[C@H](CC(=O)NCc3ccncn3)O[C@@H]2CO)c1,-1,13
C[C@@H](NC(=O)C[C@H]1C[C@@H]2c3cc(NC(=O)CC4CC4)ccc3O[C@@H]2[C@H](CO)O1)c1ccccc1,5,0
C/C=C/c1ccc2c(c1)O[C@H](CN(C)C(=O)c1cccnc1)[C@@H](C)CN([C@@H](C)CO)S2(=O)=O,-4,-2
COc1ccc(NC(=O)N(C)C[C@H]2Oc3ccc(NC(=O)Cn4cnnn4)cc3CC(=O)N([C@@H](C)CO)C[C@@H]2C)cc1,25,9
C[C@H]1CN([C@@H](C)CO)C(=O)c2cccc(NC(=O)Nc3ccccc3)c2O[C@@H]1CN(C)C(=O)Nc1ccc2c(c1)OCO2,12,16
O=C(NCC[C@@H]1CC[C@H](NS(=O)(=O)Cc2ccccc2)[C@H](CO)O1)C1CCCC1,3,-7

# Record cards (already shown). Order of screens: Vaccinia inh	Vaccinia inh Venus
# Entry for `O=C(C1CC1)N1CC(=O)N2[C@H](CO)[C@@H](c3ccc(-c4ccccc4F)cc3)[C@@H]2C1` → u	x
# Entry for `C[C@H](CO)N1C[C@H](C)[C@@H](CN(C)S(=O)(=O)c2cccs2)Oc2ccc(NC(=O)C3CCCCC3)cc2CC1=O` → -7	-2
# Entry for `COc1cccc(NC(=O)N[C@H]2C=C[C@H](CC(=O)NCc3ccncn3)O[C@@H]2CO)c1` → -1	13

# Shown bar-delimited: five of the compounds above.
SMILES | Vaccinia inh | Vaccinia inh Venus
C[C@@H]1CN([C@@H](C)CO)C(=O)c2cccc(NS(=O)(=O)c3cn(C)cn3)c2O[C@@H]1CN(C)Cc1ccncc1 | 13 | 5
C[C@@H]1CN([C@@H](C)CO)C(=O)c2ccccc2-c2ccccc2CO[C@H]1CN(C)S(=O)(=O)c1ccc(Cl)cc1 | u | x
O=C(NCC[C@@H]1CC[C@H](NS(=O)(=O)Cc2ccccc2)[C@H](CO)O1)C1CCCC1 | 3 | -7
CO[C@H]1CN(C)C(=O)c2ccc(NS(C)(=O)=O)cc2OC[C@@H](C)N(CCC(F)(F)F)C[C@@H]1C | 20 | 16
CN(C)C(=O)c1cccc(-c2ccc(C3[C@@H]4CN(Cc5cncnc5)C[C@H]3N4)cc2)c1 (stereo partly drawn) | 11&7 | 7&4

# Next section:
SMILES,Vaccinia inh,Vaccinia inh Venus
CO[C@H]1CN(C)C(=O)c2cc(NC(=O)Cc3ccccc3)ccc2OC[C@H](C)N(C(=O)c2ccccc2F)C[C@H]1C,-2,2
CCCc1cn(CC[C@H]2CC[C@@H](NC(=O)C3CC3)[C@@H](CO)O2)nn1,1,5
C[C@@H]1CCCCO[C@@H](CN(C)C(=O)CCCN(C)C)[C@@H](C)CN([C@H](C)CO)C(=O)c2cc(NC(=O)Nc3ccccc3)ccc2O1,5,7
C[C@@H]1CCCCO[C@H](CN(C)S(=O)(=O)c2cn(C)cn2)[C@@H](C)CN([C@H](C)CO)C(=O)c2cc(NS(C)(=O)=O)ccc2O1,15,7
CC(=O)n1cc([C@@H]2C=C(C(=O)N3CCN(Cc4ccccc4)CC3)O[C@H](OCCCCO)C2)c2ccccc21,3,10
COC(=O)C[C@H]1CC[C@H](NC(=O)c2ccccc2)[C@@H](CO)O1,10,18
O=C(C[C@@H]1C=C[C@@H](NC(=O)Nc2ccccc2F)[C@@H](CO)O1)NCc1ccc(Cl)cc1,8,3
COc1ccccc1-c1ccc2c(c1)O[C@@H](CN(C)S(=O)(=O)c1ccccc1)[C@@H](C)CN([C@H](C)CO)S2(=O)=O,-18,-2
COc1ccc(S(=O)(=O)Nc2ccc3c(c2)C(=O)N([C@H](C)CO)C[C@@H](C)[C@@H](CN(C)S(C)(=O)=O)O3)cc1,2,1
C[C@H](CO)N1C[C@H](C)[C@@H](CN(C)S(=O)(=O)c2ccccc2)Oc2ccc(NC(=O)CCCCCC(=O)Nc3ccccc3N)cc2C1=O,8,1
O=C(Nc1ccc(F)cc1)N[C@H]1CC[C@H](CCNS(=O)(=O)c2cccc(Cl)c2)O[C@@H]1CO,-7,-8
COc1ccccc1CNC(=O)C[C@H]1CC[C@@H]2[C@H](COC[C@@H](O)CN2C(=O)Nc2ccc(Cl)cc2)O1,-18,-11
COCc1cn(CC[C@@H]2CC[C@@H](NC(=O)c3ccncc3)[C@H](CO)O2)nn1,-3,1
COc1ccc2c3c(n(C)c2c1)[C@H](CO)N(C(=O)c1ccc(F)cc1)CC31CN(CC2CCOCC2)C1,-14,-11
COCc1cn([C@@H]2C[C@@H]3O[C@@H](CO)CC[C@@H]3O[C@@H]2CCc2ccc(-c3ccc(OC)cc3)cc2)nn1,u,x
C[C@@H]1CN([C@@H](C)CO)C(=O)c2c(c3ccccc3n2C)-c2ccccc2CO[C@H]1CN(C)C(=O)Oc1ccccc1,u,x
Cn1cnc(S(=O)(=O)N[C@H]2CC[C@H](CC(=O)NCC3CC3)O[C@H]2CO)c1,12,6
C[C@H]1CN([C@@H](C)CO)C(=O)Cc2cc(NS(=O)(=O)c3ccc(F)cc3)ccc2O[C@H]1CN(C)Cc1ccncc1,8,0
CO[C@@H]1CN(C)C(=O)c2ccc(NC(=O)CN(C)C)cc2OC[C@@H](C)N(C(=O)C2CCOCC2)C[C@H]1C,13,14
C[C@H](CO)N1C[C@H](C)[C@@H](CN(C)S(=O)(=O)c2cccs2)Oc2ccc(N(C)C)cc2C1=O,u,x
COc1ccc(NC(=O)Nc2ccc3c(c2)C(=O)N([C@H](C)CO)C[C@H](C)[C@@H](CN(C)C(=O)Nc2ccc(C(F)(F)F)cc2)O3)cc1,-8,-3
COc1ccc(S(=O)(=O)N(C)C[C@@H]2OCCCC[C@@H](C)Oc3ccc(N(C)C)cc3C(=O)N([C@@H](C)CO)C[C@H]2C)cc1,-8,1
CN(C)C(=O)c1ccc(-c2ccc([C@@H]3[C@@H](CO)N4C(=O)CN(C(=O)C5CCCC5)C[C@@H]34)cc2)cc1,-3,-2
C[C@@H]1CN([C@H](C)CO)C(=O)c2cccc(NC(=O)c3nc4ccccc4s3)c2O[C@@H]1CN(C)Cc1ccc(C(=O)O)cc1,5,1
C[C@@H]1CN([C@H](C)CO)C(=O)c2ccccc2-c2ccccc2CO[C@H]1CN(C)C(=O)CCC(F)(F)F,11,-4
C[C@H](NC(=O)C[C@@H]1C=C[C@@H](NC(=O)C2CC2)[C@H](CO)O1)c1ccccc1,2,3
CNC[C@@H]1Oc2cc(C#CC(C)(C)O)ccc2S(=O)(=O)N([C@H](C)CO)C[C@H]1C,6,-3
C[C@H]1CN([C@@H](C)CO)C(=O)c2cccc(NC(=O)Nc3cccc4ccccc34)c2O[C@@H]1CN(C)C(=O)Nc1ccc(F)cc1,-6,-7
Cc1noc(C)c1NC(=O)Nc1cccc2c1O[C@H](CN(C)S(=O)(=O)c1ccc(F)cc1)[C@H](C)CN([C@@H](C)CO)C2=O,6,10
CC(C)CC#Cc1cnc2c(c1)C(=O)N([C@H](C)CO)C[C@H](C)[C@@H](CN(C)C(=O)CC1CC1)O2,15,5

# Among those listed so far, 2 have a thiophene ring, fused or not:
SMILES,Vaccinia inh,Vaccinia inh Venus
C[C@H](CO)N1C[C@H](C)[C@@H](CN(C)S(=O)(=O)c2cccs2)Oc2ccc(NC(=O)C3CCCCC3)cc2CC1=O,-7,-2
C[C@H](CO)N1C[C@H](C)[C@@H](CN(C)S(=O)(=O)c2cccs2)Oc2ccc(N(C)C)cc2C1=O,u,x

# Next part
SMILES,Vaccinia inh,Vaccinia inh Venus
CO[C@H]1CN(C)C(=O)c2cc(NS(=O)(=O)CC(F)(F)F)ccc2OC[C@H](C)NC[C@H]1C,0,6
Cc1noc(C)c1NC(=O)N(C)C[C@H]1Oc2c(NC(=O)NC(C)C)cccc2C(=O)N([C@H](C)CO)C[C@@H]1C,17,8
O=C(C[C@@H]1C[C@@H]2c3cc(NC(=O)Nc4ccccc4F)ccc3O[C@@H]2[C@H](CO)O1)NC1CCCCC1,-8,-1
CCCNC(=O)N1C[C@H]2[C@@H](c3ccccc31)[C@@H](CO)N2Cc1cccc(OC)c1,2,-1

# This is a subset; the hit share may differ from the screen's.
